tim10-1 inh – growth inhibitors of tim10-1 mutant yeast; S. cerevisiae tim10-1 ts strain growth, BacTiter-Glo, 24 h; inhibition, % at 20 µM; 2.2% of 330,000 active; AID 463190;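 active = inhibition of at least 40%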;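 also: mutant grown at 25 °C; 0% = DMSO wells with yeast and 100% = wells holding no yeast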
CHOP UPR activ – apoptotic UPR (CHOP) activation. AID 449763. 0.34% of 330,000 active. activation, % at 10 µM. CHO-CHOP luciferase reporter, luminescence; percent of tunicamycin response over DMSO baseline;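 active = at 10 µM dose, activation of 40% or more, normalized to positive control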;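 also: 100% = tunicamycin at 10 µg/mL and 0% = DMSO alone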
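measured by = luciferase luminescence | assay system = CHO-CHOP cells, stable luciferase reporter of PERK-eIF2a-CHOP signalling | amount = 500 reporter cells seeded per well | timing = 6 h compound exposure at 37 °C after overnight seeding | controls = positive tunicamycin 10 µg/mL, negative DMSO alone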
UPR XBP1 act – activators of adaptive arm of unfolded protein response (XBP1); CHO-XBP1 luciferase reporter, IRE1-XBP1 UPR activation, luminescence; percent of tunicamycin response, DMSO as zero; activation, % at 20 µM; 0.33% of 330,000 active; AID 463104;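 active = versus positive control, 20 µM dose yields 30% or more activation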;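 also: 100% = tunicamycin at 10 µg/mL and 0% = DMSO only wells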
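Assay system: IRE1-XBP1 luciferase reporter CHO line. Input: 1000 cells/well. Buffer or medium: F12 with 10% serum. Doses: 20 µM, 1% DMSO. Times: overnight seeding at 37 °C, 6 h compound treatment at 37 °C. Technique: Steady-Glo luciferase glow luminescence, 10 min after reagent addition.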
TIM10 inh – TIM10 yeast growth inhibition; 1.4% of 330,000 active; S. cerevisiae TIM10 strain growth, BacTiter-Glo luminescence, 24 h; AID 463195; inhibition, % at 10 µM;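 active = inhibition of 40% or more at the single tested concentration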;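 also: wild-type TIM10 isogenic control strain grown at permissive 25 °C; 0% = DMSO yeast wells and 100% = minimal medium wells without yeast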
tim23-1 inh – growth inhibitors of tim23-1 mutant yeast | S. cerevisiae tim23-1 growth, BacTiter-Glo luminescence, 24 h | inhibition, % at 20 µM | 1.3% of 330,000 active | AID 463212;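 active = growth inhibition of the mutant yeast at or above 50%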;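 also: temperature-sensitive mutant grown at 25 °C; plate controls were DMSO-treated mutant yeast for no effect and medium wells lacking yeast for full effect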
Numbers without * were called inactive. The list is partial; the hit share may differ from the screen's.

| No. | mol | CHOP UPR activ | TIM10 inh | UPR XBP1 act | tim23-1 inh | tim10-1 inh |
| --- | --- | --- | --- | --- | --- | --- |
| 1 | Nc1ccc2c(c1)Cc1ccccc1-2 | 8.4 | 14 | 3 | 4 | -11 |
| 2 | Nc1ccc(N=Nc2ccccc2)cc1 | 3.4 | 4 | 6 | 12 | 18 |
| 3 | CCOC(=O)C1(c2ccccc2)CCN(CCC(C#N)(c2ccccc2)c2ccccc2)CC1 | 1.2 | 29 | -7 | 18 | 12 |
| 4 | CC(=O)O[C@@]12CO[C@@H]1C[C@@H](O)[C@@]1(C)C(=O)[C@H](O)C3=C(C)[C@@H](OC(=O)[C@H](O)[C@@H](NC(=O)c4ccccc4)c4ccccc4)C[C@@](O)([C@@H](OC(=O)c4ccccc4)C12)C3(C)C (stereo partly specified) | -0.8 | 7 | -2 | 3 | 10 |
| 5 | CCOC(=O)c1cncn1C(C)c1ccccc1 (stereo unspecified) | -0.7 | 23 | -6 | 9 | 36 |
| 6 | C[C@]12CCC(=O)C=C1CC[C@@H]1[C@@H]2CC[C@]2(C)C(=O)CC[C@@H]12 | 3.3 | -8 | -5 | 11 | 11 |
| 7 | CC[N+]1(C)CCCC(OC(=O)C(O)(c2ccccc2)c2ccccc2)C1 (stereo unspecified) | -1.3 | -7 | -3 | 4 | -8 |
| 8 | C[N+]1(C)[C@@H]2CC[C@H]1CC(OC(=O)[C@@H](CO)c1ccccc1)C2 (stereo partly specified) | 1.7 | 8 | -1 | -4 | -5 |

Entries of single compounds, quoted from the list:
CC[N+]1(C)CCCC(OC(=O)C(O)(c2ccccc2)c2ccccc2)C1 (stereo unspecified) is entered as CHOP UPR activ: -1.3; TIM10 inh: -7; UPR XBP1 act: -3; tim23-1 inh: 4; tim10-1 inh: -8
Nc1ccc2c(c1)Cc1ccccc1-2 is entered as CHOP UPR activ: 8.4; TIM10 inh: 14; UPR XBP1 act: 3; tim23-1 inh: 4; tim10-1 inh: -11
CC(=O)O[C@@]12CO[C@@H]1C[C@@H](O)[C@@]1(C)C(=O)[C@H](O)C3=C(C)[C@@H](OC(=O)[C@H](O)[C@@H](NC(=O)c4ccccc4)c4ccccc4)C[C@@](O)([C@@H](OC(=O)c4ccccc4)C12)C3(C)C (stereo partly specified) is entered as CHOP UPR activ: -0.8; TIM10 inh: 7; UPR XBP1 act: -2; tim23-1 inh: 3; tim10-1 inh: 10

Arranged by count of non-hydrogen atoms (descending): part of the list above
| No. | mol | CHOP UPR activ | TIM10 inh | UPR XBP1 act | tim23-1 inh | tim10-1 inh |
| --- | --- | --- | --- | --- | --- | --- |
| 3 | CCOC(=O)C1(c2ccccc2)CCN(CCC(C#N)(c2ccccc2)c2ccccc2)CC1 | 1.2 | 29 | -7 | 18 | 12 |
| 7 | CC[N+]1(C)CCCC(OC(=O)C(O)(c2ccccc2)c2ccccc2)C1 (stereo unspecified) | -1.3 | -7 | -3 | 4 | -8 |
| 8 | C[N+]1(C)[C@@H]2CC[C@H]1CC(OC(=O)[C@@H](CO)c1ccccc1)C2 (stereo partly specified) | 1.7 | 8 | -1 | -4 | -5 |

Next entries:
| No. | mol | CHOP UPR activ | TIM10 inh | UPR XBP1 act | tim23-1 inh | tim10-1 inh |
| --- | --- | --- | --- | --- | --- | --- |
| 9 | CC(C)Nc1nc(Cl)nc(NC(C)C)n1 | -2.2 | 8 | -1 | 2 | 12 |
| 10 | CCC1(c2ccc(N)cc2)CCC(=O)NC1=O (stereo unspecified) | 0.5 | 3 | -1 | -13 | -11 |
| 11 | C[N+]1(CCC(C(N)=O)(c2ccccc2)c2ccccc2)CCCCC1 | -1.5 | 3 | -2 | -7 | -8 |
| 12 | C[C@]12CC[C@H]3[C@@H](CCC4=CC(=O)CC[C@@H]43)[C@@H]1CC[C@@H]2O | -1.1 | -14 | 3 | 6 | -10 |
| 13 | CCC1(C2=NCCN2)Cc2ccccc2O1 (stereo unspecified) | 1.6 | 4 | -5 | 5 | 3 |
| 14 | CCN(CC)C1=NC(=[N+](CC)CC)c2ccccc21 | 0.0 | -11 | -2 | 2 | -3 |
| 15 | O=c1[nH]c2ccccc2n1CCCN1CCC(n2c(=O)[nH]c3cc(Cl)ccc32)CC1 | -0.2 | -5 | -7 | 10 | 5 |
| 16 | C[C@@H]1C[C@@H]([C@H](O)CC2CC(=O)NC(=O)C2)C(=O)[C@@H](C)C1 | -4.5 | 68* | -7 | 73* | 38 |
| 17 | Oc1ccc(C(=C(Cl)Cl)c2ccc(O)cc2)cc1 | 0.4 | 1 | -2 | -56 | -29 |
| 18 | CN[C@H](C)[C@H](O)c1ccccc1 | -0.8 | 6 | -8 | -8 | -13 |
